CBX7 inh: blocks human CBX7 binding to H3K27me3 peptide; normalised signal (fraction of DMSO) (test concentration not listed); AlphaScreen His6-CBX7 / biotin-H3K27me3 peptide binding; stronger effect = lower value; O95931; 66,000 compounds, 1.1% hits; in the data active means normalised signal below about 0.5;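 further: 100 nL library stock added to about 20 µL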
Target sequence (O95931 whole entry, looked up): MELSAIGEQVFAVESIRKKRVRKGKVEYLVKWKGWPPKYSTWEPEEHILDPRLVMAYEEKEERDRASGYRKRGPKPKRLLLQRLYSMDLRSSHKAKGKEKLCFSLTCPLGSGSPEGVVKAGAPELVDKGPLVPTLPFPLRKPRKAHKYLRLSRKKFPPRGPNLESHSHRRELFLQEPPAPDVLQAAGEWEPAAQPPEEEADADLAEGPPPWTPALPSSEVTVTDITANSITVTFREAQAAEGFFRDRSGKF
CBX7 inh z-score: also measured in CBX7 inh; calls as there; z-score; measured here: z-score of CBX7 signal; some inactives read as strong as hits; reference of the scale not given here;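 same signal on another scale; lower means less binding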
An asterisk follows results filed as active; & = joins results of further samples. Not all compounds are listed, so the mix of outcomes need not match the whole.

SMILES | CBX7 inh | CBX7 inh z-score
Cc1oc(-c2ccccc2F)nc1CN1CCCC(C(=O)NC2CCCCC2)C1 (configuration not stated) | 1 | 0.13
Cc1oc(-c2ccccc2Cl)nc1C(=O)NCc1ccc(F)cc1 | 1 | 0.0076
Cc1oc(-c2ccc(Cl)cc2)nc1CN1CCCC(C(=O)N2CCc3ccccc3C2)C1 (configuration not stated) | 1 | 0.56
O=C1CC(=O)Nc2cc(S(=O)(=O)NC3CCCCCC3)ccc2N1 | 1 | 0.18
COc1cccc(-c2nc(CS(=O)(=O)CC(=O)Nc3ccc(F)cc3C)c(C)o2)c1 | 0.98 | -0.24
COc1ccc(OC)c(NC(=O)c2c(NCc3sccc3C)sc3c2CCCCC3)c1 | 0.54 | -6.4
Cc1ccn2c(=O)c(C(=O)Nc3ccccc3C(F)(F)F)cnc2c1 | 1.1 | 1.5
CCc1cccc(NC(=O)CCc2c(C)nc3ncnn3c2C)c1 | 1 | 0.37
CC(=O)NCCNC(=O)CCn1c(=O)[nH]c2ccsc2c1=O | 1.1 | 0.39
Cc1ccc(CNC(=O)CSCc2nc(-c3ccc(C)cc3)oc2C)cc1 | 0.96 | -0.75
COc1ccccc1Nc1nnc(Cc2ccncc2)c2ccccc12 | 1 | 0.83
COc1ccc(C2C(C(=O)Nc3ccc(C(C)C)cc3)CC(=O)N2c2ccc(OC)cc2)cc1 (configuration not stated) | 0.82 | -3.2
CCN(C(=O)Cc1c(C(=O)O)n(CC)c2ccccc12)c1cccc(Cl)c1 | 1.1 | 1.4
Cc1ccc(-c2cc(-c3ccccc3)no2)c(O)c1 | 1.1&1 | 2.3&0.15
O=C(Nc1c(-c2cccs2)nc2ccccn12)c1cc(Br)ccc1Cl | 1.1 | 0.66
O=C(CC1Nc2ccccc2NC1=O)Nc1cccc(C(=O)O)c1 (configuration not stated) | 1 | 0.83
COc1ccc2c(c1)c(CC(=O)N1CCC(C(N)=O)CC1)c(C)n2C(=O)c1ccc(Cl)cc1 | 0.93 | -1.5
O=C(CSc1nccn1-c1cccc(Cl)c1)Nc1nccs1 | 0.93 | -1.3
CCc1ccc2nc(Nc3nc(C)c(Cc4ccc(C)cc4)c(=O)[nH]3)nc(C)c2c1 | 0.93 | -2.2
CCOCCCNC(=O)C(c1ccc(OC)cc1)N(C)c1ccccc1 (configuration not stated) | 0.99 | -0.31
COc1ccc(C(=O)Nc2c(C(=O)c3ccc(C)cc3)oc3ccccc23)cc1 | 1.1 | 0.43
COc1ccc(CN(C)CCc2ccccn2)cc1OCc1ccccc1 | 0.72 | -2.2
COc1ccc(OC)c(NCC(O)Cn2c3ccccc3c3ccccc32)c1 (configuration not stated) | 0.3* | -4.4*
O=C(Nc1nnc(C2CC2)o1)c1ccc(S(=O)(=O)N2CCOCC2)cc1 | 0.44* | -5.4*
O=C(CN1CCN(Cc2cccc(Cl)c2)C1=O)NC1CCCCCCC1 | 0.96 | -0.58
COc1ccc(N2CCN(C(=O)c3n[nH]c(=O)c4ccccc34)CC2)cc1 | 0.99 | -0.048
CS(=O)(=O)CC[C@@H](C(=O)NCCCc1ccccc1)N1Cc2ccccc2C1=O | 1 | 0.63
O=C(Nc1ccc(-c2nc3cc(NC(=O)c4cccnc4)ccc3o2)cc1)c1cccnc1 | 1.1 | 1.8
CCC(C)NC(=O)CN1C(=O)c2ccccc2S1(=O)=O (configuration not stated) | 0.98 | -0.41
COc1ccccc1Nc1ncnc2ccc(Br)cc12 | 1.1 | 2.5
Cc1ccc(OCc2nc(-c3cccnc3)no2)cc1 | 1.1 | 0.12
COc1ccc(C)cc1NC(=O)c1oc2ccc(S(=O)(=O)N(C)C3CCCCC3)cc2c1C | 1 | 1.4
COc1cc2c(c(OC)c1)C(c1ccccc1F)CC(=O)N2 (configuration not stated) | 0.95 | -0.07
CC1CCN(S(=O)(=O)c2ccc3nc(-c4ccccn4)cc(C(=O)NCCCOC(C)C)c3c2)CC1 | 1 | 1.5
Cc1cc(NC(=O)CSc2nnc(-c3ccccc3F)o2)no1 | 0.92 | -1.3
CCOc1ccccc1NC(=O)c1c(NC(=O)c2cccs2)sc2c1CCCCC2 | 1.1 | 2.5
CCOC(=O)C1CCN(C(=O)c2c(-c3ccccc3)noc2C)CC1 | 1 | 0.22
CCOC(=O)c1cc(-c2ccccc2)n(-c2ccc(C(=O)NCc3ccc(F)cc3)cc2)c1C | 0.75 | -3.5
CN(C)CCNC(=O)CN1C(=O)COc2ccc(C(C)(C)C)cc21 | 1 | 0.65
O=C(CSc1n[nH]c(-c2ccccc2)n1)Nc1ccc(Br)cn1 | 0.97 | -0.57
Cc1cc(C)n(-c2nc(-c3ccc(Br)cc3)cs2)n1 | 1.1&1.1 | 1.7&2
COCCCNC(=O)CS(=O)(=O)Cc1nc(-c2ccc(C)cc2)oc1C | 1 | 0.1
CN(CCCNC(=O)C1CCN(C(=O)c2cc3sccc3n2C)CC1)C1CCCCC1 | 1 | 0.62
CCOC(=O)c1[nH]c2ccc(O)cc2c1C(=O)c1ccccc1 | 0.93 | -0.85
O=C(Nc1cc(Cl)ccc1Cl)c1cc(-c2ccc3c(c2)OCO3)on1 | 1.1 | 2.3
Cc1c(C)n(CC(O)CNC2CCCCC2)c2ccccc12 (configuration not stated) | 0.98 | -0.73
O=C(CN1C(=O)COc2ccc(S(=O)(=O)N3CCOCC3)cc21)NCc1ccccc1 | 0.98 | -0.48
COc1ccc(Nc2c(-c3ccc(N(C)C)cc3)nc3ncccn23)cc1 | 0.91 | -0.96
Cc1cc(=O)n2nc(N3CCCC(C(=O)NCCC4=CCCCC4)C3)sc2n1 (configuration not stated) | 1.1 | 1.1
O=C(Cn1ncc2c1-c1ccccc1OC2)NCCOC12CC3CC(CC(C3)C1)C2 | 0.98 | -0.33
COC(=O)c1ccc(N2C(=O)CSC2c2cccc(Cl)c2Cl)cc1 (configuration not stated) | 1 | 1.2
COc1cc(OC)cc(-c2cc3nc(C)c(CCC(=O)NC4CCCCCC4)c(C)n3n2)c1 | 1 | 0.43
CCOc1ccccc1NC(=O)c1c(NC(=O)c2ccncc2)sc2c1CCC(C(C)(C)C)C2 (configuration not stated) | 0.88 | -1.5
CC1c2nc3ccccc3n2C(CC(=O)NC2CC2)C(=O)N1Cc1ccccc1 (configuration not stated) | 1 | 0.69
O=C(NCc1ccccc1)c1ccc2c(c1)N(Cc1ccccc1)C(=O)c1ccccc1S2=O (configuration not stated) | 0.88 | -3.1
CCOc1ccccc1NC(=O)C1CCCN(S(=O)(=O)c2cccc3cccnc23)C1 (configuration not stated) | 1 | 0.58
CCOCCc1nnc(NC(=O)c2cccc(OCC)c2)s1 | 1 | 0.48
COc1ccc(-n2nc3c(c2NC(=O)c2ccccc2Br)CSC3)cc1 | 0.92 | -1.8
Cc1ccc2nc(-c3ccccc3)c(NC(=O)c3ccc(Cl)cc3)n2c1 | 0.91 | -1.1
CCc1nnc(NS(=O)(=O)c2ccc(NC(=O)Nc3ccc(Cl)c(Cl)c3)cc2)s1 | 0.62 | -1.7

Later entries
SMILES | CBX7 inh | CBX7 inh z-score
O=C(NCc1ccccc1)c1nn2c(c1Br)NC(c1cccs1)CC2C(F)(F)F (configuration not stated) | 1 | -0.15
CC1(C)CC2CC(C)(CN2c2nc(-c3ccccc3)nc3ccccc23)C1 (configuration not stated) | 0.88 | -1.5
O=C(O)c1ccc(S(=O)(=O)c2ccc3c(c2)C(=O)N(c2cccc(C(F)(F)F)c2)C3=O)cc1 | 0.99 | -0.27
Cc1ccc(-n2ncc(C(=O)Nc3ccccc3Cl)c2C2CCNCC2)cc1C | 0.93 | -1.2
CC(CCc1ccccc1)NC(=O)c1cnn(-c2ccccc2)c1-n1cccc1 (configuration not stated) | 1 | 1.7
CC1CCN(CCCNC(=O)C2CC(=O)N(C3CCCC3)C2)CC1 (configuration not stated) | 1 | 1.1
CCOC(=O)c1c(C)n(CCOc2ccccc2)c2ccc(O)cc12 | 0.86 | -2.3
Cc1ccc(Cl)cc1N1CCN(C(=O)c2ccc3nc(N4CCOCC4)sc3c2)CC1 | 1 | 0.046
COc1cccc(CNC(=O)c2cc(C(C)C)[nH]n2)c1 | 1 | 1
CCOc1ccc(N2C(=O)CC(N3CCC(C(N)=O)CC3)C2=O)cc1 (configuration not stated) | 0.97 | -0.53
COc1ccc(-n2ncc3c(N(CCO)CCO)ncnc32)cc1 | 0.82 | -2.9
O=C(NC1CC1)c1ccc2c(c1)N(Cc1ccccc1)C(=O)CS2=O (configuration not stated) | 0.96 | -0.79
CCOC(=O)c1cnn(-c2ccccc2)c1NC(=O)CSc1nnc(C)s1 | 1.3 | 2
COCCNC(=O)CN1CCN(Cc2ccc(C)cc2)C1=O | 1 | 2.3
COc1ccc(C(O)C(Nc2ccccc2)c2nc3ccccc3n2C)cc1 (configuration not stated) | 0.93 | -1.3

As a working copy, some entries already given.
SMILES | CBX7 inh | CBX7 inh z-score
CC1c2nc3ccccc3n2C(CC(=O)NC2CC2)C(=O)N1Cc1ccccc1 (configuration not stated) | 1 | 0.69
O=C(NCc1ccccc1)c1ccc2c(c1)N(Cc1ccccc1)C(=O)c1ccccc1S2=O (configuration not stated) | 0.88 | -3.1
CCOc1ccccc1NC(=O)C1CCCN(S(=O)(=O)c2cccc3cccnc23)C1 (configuration not stated) | 1 | 0.58
CCOCCc1nnc(NC(=O)c2cccc(OCC)c2)s1 | 1 | 0.48
COc1ccc(-n2nc3c(c2NC(=O)c2ccccc2Br)CSC3)cc1 | 0.92 | -1.8
Cc1ccc2nc(-c3ccccc3)c(NC(=O)c3ccc(Cl)cc3)n2c1 | 0.91 | -1.1
CCc1nnc(NS(=O)(=O)c2ccc(NC(=O)Nc3ccc(Cl)c(Cl)c3)cc2)s1 | 0.62 | -1.7
O=C(NCc1ccccc1)c1nn2c(c1Br)NC(c1cccs1)CC2C(F)(F)F (configuration not stated) | 1 | -0.15
CC1(C)CC2CC(C)(CN2c2nc(-c3ccccc3)nc3ccccc23)C1 (configuration not stated) | 0.88 | -1.5
O=C(O)c1ccc(S(=O)(=O)c2ccc3c(c2)C(=O)N(c2cccc(C(F)(F)F)c2)C3=O)cc1 | 0.99 | -0.27
Cc1ccc(-n2ncc(C(=O)Nc3ccccc3Cl)c2C2CCNCC2)cc1C | 0.93 | -1.2
CC(CCc1ccccc1)NC(=O)c1cnn(-c2ccccc2)c1-n1cccc1 (configuration not stated) | 1 | 1.7
CC1CCN(CCCNC(=O)C2CC(=O)N(C3CCCC3)C2)CC1 (configuration not stated) | 1 | 1.1
CCOC(=O)c1c(C)n(CCOc2ccccc2)c2ccc(O)cc12 | 0.86 | -2.3
Cc1ccc(Cl)cc1N1CCN(C(=O)c2ccc3nc(N4CCOCC4)sc3c2)CC1 | 1 | 0.046
COc1cccc(CNC(=O)c2cc(C(C)C)[nH]n2)c1 | 1 | 1
CCOc1ccc(N2C(=O)CC(N3CCC(C(N)=O)CC3)C2=O)cc1 (configuration not stated) | 0.97 | -0.53
COc1ccc(-n2ncc3c(N(CCO)CCO)ncnc32)cc1 | 0.82 | -2.9
O=C(NC1CC1)c1ccc2c(c1)N(Cc1ccccc1)C(=O)CS2=O (configuration not stated) | 0.96 | -0.79
CCOC(=O)c1cnn(-c2ccccc2)c1NC(=O)CSc1nnc(C)s1 | 1.3 | 2

Next entries.
SMILES | CBX7 inh | CBX7 inh z-score
Cc1ccc(Cl)cc1NC(=O)C1CCN(C(=O)c2cnn(-c3ccccc3)c2-n2cccc2)CC1 | 0.87 | -0.3
COc1ccc(NC(=O)c2c(-c3ccccc3)noc2C)c(OC)c1 | 0.98 | -0.027
CCOCCCNC(=O)C(NC(=O)c1ccc(=O)[nH]c1)c1ccc(Cl)cc1 (configuration not stated) | 1.2 | 1.8
CC(CCc1ccccc1)NC(=O)C1CCN(c2nc3ccccc3[nH]2)CC1 (configuration not stated) | 0.93 | -0.84
Cc1ccc(OCc2nc(C#N)c(NCc3ccccc3Cl)o2)cc1 | 0.54 | -5.8
Cc1ccc2c(c1)C(c1ccc(F)cc1)N(C(=O)CC1CCCCC1)CC(=O)N2 (configuration not stated) | 0.63 | -6.7
Cc1cc(C)n(-c2nc3ccccc3nc2Nc2ccc(CC(=O)O)cc2)n1 | 1.1 | 1.9
CCN(CCNC(=O)c1cnn(-c2ccccc2)c1-n1cccc1)c1ccccc1 | 1 | 0.69
Cc1cc(N2CCC(C(=O)Nc3cccnc3Cl)CC2)n2nc(C)c(-c3ccc(Cl)cc3)c2n1 | 1.1 | 3.3
Clc1ccc(-c2cc(-c3ccc(Cl)cc3)n(-c3ccccc3Cl)n2)cc1 | 0.87 | -2
Cc1ccc(N(CC(=O)NC2CCCCCCC2)S(=O)(=O)c2cccnc2)cc1 | 1.2 | 1.2
CC1CC(C)CN(S(=O)(=O)c2ccc(C(=O)Nc3nnc(-c4ccc(Cl)s4)o3)cc2)C1 (configuration not stated) | 0.4* | -6.8*
CCOc1cc2c(cc1OCC)C(c1cccc(OC)c1)CC(=O)N2 (configuration not stated) | 0.9 | -1.2
COc1ccc(Cn2c(CCC(=O)NCc3ccc(C)cc3)nc3cccnc32)cc1 | 1 | 1.4
Cc1nc(C)c(C(=O)Nc2ccc(Br)c(C)c2)o1 | 0.99 | -0.16
CCCc1ccc(-c2ccc(C(=O)Nc3nc4ccc(C)cc4s3)cc2)nc1 | 1.1 | 1.7
Cc1ccccc1-c1nc(CN2CCCC(C(=O)NCc3cccnc3)C2)c(C)o1 (configuration not stated) | 1 | 0.031
CCN(c1ccccc1)S(=O)(=O)c1ccc2[nH]cc(C(=O)NCC3CCCO3)c(=O)c2c1 (configuration not stated) | 0.94 | -1.7
Cn1c(=O)cc(OCC(=O)NCc2ccccn2)c2ccccc21 | 0.88 | -1.9
O=C(O)CC1=C2CN(C1=O)C(c1ccccc1)c1cc(Br)ccc1N2 (configuration not stated) | 1.1 | 0.34
c1ccc(-c2nnc(OCc3cccnc3)c3ccccc23)cc1 | 1 | 0.03
COc1ccc(-n2nnc3c(=O)n(CC(=O)NCC4CCCO4)cnc32)cc1 (configuration not stated) | 1 | 0.73
Fc1ccccc1Nc1c2c(nc3ccc(Cl)cc13)CCC2 | 0.93 | -0.095
COc1ccc(CNC(=O)C2CC(c3cc(OC)ccc3OC)=NO2)cc1 (configuration not stated) | 1.1 | 1.9
O=C(COc1ccc(Cl)cc1)Nc1nc(-c2ccc(Cl)cc2)cs1 | 1.1 | 0.75
